Screening results: PubChem BioAssay, National Center for Advancing Translational Sciences (NCATS)
D2 potentiator: Beta-Arrestin HTS for Positive Allosteric Modulators of the Human D2 Dopamine Receptor: Potentiators; DiscoveRx D2 beta-arrestin cells, luminescence, 90 min; 100% = 57 uM dopamine signal; D(2) dopamine receptor (Homo sapiens), P14416; actives 0.23% (n = 360,000); potentiation, % (test concentration not listed); active = potentiation of 50% or more; inconclusive = 30% to 50%; inactive = 30% or less;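 also: compound concentration not given in the record; tested on top of an EC20 dose of dopamine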
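D2 cells co-treated with compound plus 50 nM dopamine (EC20) for 90 min at 37 deg C to detect potentiation. Beta-arrestin recruitment was read as enzyme-fragment luminescence after 1 h at ambient temperature. Full response was set by 57 uM dopamine.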
PINK1 expr mod: A Quantitative High throughput Screen to Identify Chemical Modulators of PINK1 Expression; actives 0.2% (n = 410,000); Potency, µM (highest dose often 76.6 µM), inactives show at the highest dose activation (PINK1 increase), actives largely listed as activators; PINK1 immunofluorescence, high-content cytometry, 24 h; active = well fitted activation curve with a large enough effect; inconclusive = small, poorly fitted or top-dose-only effect; inactive = flat fitted curve, though single readings scatter; cell line not stated here;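 also: potency is read from the fitted curve at half-maximal effect; % of control where 0% means no effect; nearly all actives have a fitted effect of over 65% in size; a mitochondrial uncoupler was the plate control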
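Fluorescence from anti-PINK1 antibody, together with nuclear and cell stains, was scanned on a laser-scanning cytometer. Before staining, stable-line cells were incubated 24 hours with compounds at 5 concentrations; primary antibody 12 h at 10 degrees C.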
Sfp inh: qHTS Assay for Inhibitors of Bacillus subtilis Sfp phosphopantetheinyl transferase (PPTase); AID 1490, 2009; 4'-phosphopantetheinyl transferase ffp (Bacillus subtilis), Q9F4F7; Potency, µM, for the others: max response, negative = inhibition, most hits filed as inhibitors; actives 3.5% (n = 310,000); Biochemical Sfp PPTase activity, qHTS; active = well fitted inhibition curve with a large enough effect; inconclusive = small, poorly fitted or top-dose-only effect, or another doubt; inactive = no such curve, though single readings can be large or run the other way;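 also: the enzyme is Sfp with the accession as filed and its product quenches rhodamine fluorescence; potency is read from the fitted curve at half-maximal effect; 0% = enzyme reaction without inhibitor and -100% = no enzyme wells; top concentration of the series not given in the record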
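After 15 min at room temperature with compound, 15 nM Sfp received 5 uM rhodamine-CoA plus 12.5 uM BHQ-2-ybbR (50 mM Hepes pH 7.6, 10 mM MgCl2). Rate came from the fluorescence difference over 30 min, ex 525/em 598 nm.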
CtBP-E1A inh: qHTS Assay for Inhibitors of the CtBP/E1A Interaction; actives 0.49% (n = 340,000); AlphaScreen GST-E1A/His-CtBP binding, 1536-well; hits give low values; control for the full effect not named in the record; CtBP / adenovirus E1A interaction (AlphaScreen); activity change, % (concentration not given with the values); in the data active means activity change below about -65%; inconclusive means about -30% to -65%; inactive means above about -30%; also: % is scaled to controls: 0 for no effect and ±100 for the full control effect
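In 5 uL wells, 23 nL compound meets equimolar GST-E1A and His-CtBP (5X stock 125 nM each) for 2 h, 37 °C. Beads (5X, 50 ug/mL) then 1 h, 37 °C, dark.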
D2 ag: Beta-Arrestin HTS for Positive Allosteric Modulators of the Human D2 Dopamine Receptor: Agonists; D(2) dopamine receptor (Homo sapiens), P14416; activation, % (concentration not given with the values); DiscoveRx PathHunter D2 beta-arrestin, luminescence, 90 min; 100% = 57 uM dopamine signal; actives 0.084% (n = 360,000); in the data active = activation above about 40%; inconclusive = about 15% to 40%; inactive = below about 15%; also: compound concentration not given in the record; the text of the record calls up to 30% inactive
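Agonist mode: compounds alone added to overnight-plated D2 PathHunter cells for 90 min at 37 C, with 57 uM final dopamine (EC100) defining full response. Beta-arrestin recruitment detected by chemiluminescent reagent, read after 1 h at ambient temperature.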
TRPV1 PAM: HTS Assay for Compounds that Act as Potentiators of the Vanilloid Receptor 1. TRPV1-expressing cells, Fluo-8 calcium influx, capsaicin EC20 potentiation; host cell line not named in the record; control for the full effect not named in the record. potentiation, % at 8.33 µM. actives 0.02% (n = 320,000). AID 540277, 2011; active means potentiation above 80%; inconclusive means 30% to 80%; inactive means below 30%; also: 0% is about no effect
Target sequence (Q8NER1 whole entry, looked up): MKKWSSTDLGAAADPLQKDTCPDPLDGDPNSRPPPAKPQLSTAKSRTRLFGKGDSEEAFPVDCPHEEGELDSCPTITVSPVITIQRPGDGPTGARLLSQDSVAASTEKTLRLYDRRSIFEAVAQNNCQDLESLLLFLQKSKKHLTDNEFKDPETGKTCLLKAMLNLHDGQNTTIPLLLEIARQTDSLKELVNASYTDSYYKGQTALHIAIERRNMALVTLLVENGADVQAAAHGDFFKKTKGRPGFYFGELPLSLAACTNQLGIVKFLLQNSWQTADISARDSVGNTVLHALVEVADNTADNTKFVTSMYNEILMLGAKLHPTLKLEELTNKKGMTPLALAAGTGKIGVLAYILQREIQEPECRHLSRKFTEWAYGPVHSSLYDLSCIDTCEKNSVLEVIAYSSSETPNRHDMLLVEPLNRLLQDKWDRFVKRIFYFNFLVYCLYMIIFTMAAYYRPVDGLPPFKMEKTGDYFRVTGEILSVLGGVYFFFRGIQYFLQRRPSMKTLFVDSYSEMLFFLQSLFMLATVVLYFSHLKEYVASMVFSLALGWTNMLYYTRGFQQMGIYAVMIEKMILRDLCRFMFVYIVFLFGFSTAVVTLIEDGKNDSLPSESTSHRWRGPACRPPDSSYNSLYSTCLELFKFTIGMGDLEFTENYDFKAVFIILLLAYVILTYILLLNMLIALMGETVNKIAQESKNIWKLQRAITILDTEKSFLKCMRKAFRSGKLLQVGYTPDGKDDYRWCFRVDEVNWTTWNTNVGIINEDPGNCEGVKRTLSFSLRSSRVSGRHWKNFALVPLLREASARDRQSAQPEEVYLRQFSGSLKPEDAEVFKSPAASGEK
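Cells expressing TRPV1 were dye-loaded with Fluo-8 and read kinetically: 10 s baseline, 3 min after compound (agonist portion), then 2 min after EC20 capsaicin (allosteric enhancer portion). Calcium-bound dye fluorescence at 480/520 nm.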
Six1-Eya2 inh: qHTS Assay for Inhibitors of the Six1/Eya2 Interaction | AlphaScreen GST-Six1/His-Eya2 binding, biochemical; hits give low values; control for the full effect not named in the record | Homeobox protein SIX1 (Homo sapiens) + Protein phosphatase EYA2 (Homo sapiens), … | activity change, % (no concentration beside the values) | actives 0.56% (n = 360,000); in the data active = activity change below about -65%; inconclusive = about -30% to -65%; inactive = above about -30%; also: % is scaled to controls: 0 for no effect and ±100 for the full control effect; compound concentration not given in the record
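Homogeneous AlphaScreen proximity assay pairing GST-Six1 with His-tagged Eya2 (added as 5X mix: 250 nM and 500 nM) in 50 mM Tris pH 8.0, 300 mM NaCl, 1 mM TCEP. Glutathione donor and nickel acceptor beads; 1 h, 37 °C, dark.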
Active calls of the source: *; ? = inconclusive; . = no result given; [ ] = another dose, or the depositor's remark.

SMILES	D2 potentiator	PINK1 expr mod	Sfp inh	CtBP-E1A inh	D2 ag	TRPV1 PAM	Six1-Eya2 inh
COc1cc(NC(=O)CN2C(=O)NC(c3ccccc3)(c3ccccc3)C2=O)cc(OC)c1	-11.9	-1.5%	25.9%	-15.9	-4.6	2.9	-11.9
CCC(C)N(C(=O)COC(=O)c1ccccc1SCC(=O)N1CCCC1)C1CCS(=O)(=O)C1 (stereo not given)	-10.8	3.8%	-3.7%	-1.0	-6.9	5.8	7.9
CC(CN1CCOCC1)c1ccccc1 (stereo not given)	-8.4	.	0.6%	-6.6	-2.2	13.9	4.3
O=S1(=O)CC(N2CCC(c3ccccc3)CC2)CN1Cc1ccc(F)cc1 (stereo not given)	-10.2	-1.0%	.	-8.6	-3.9	.	-0.8
O=c1c2ccccc2[nH]c(=S)n1CCCN1CCN(c2ccccc2F)CC1	-11.5	1.1%	10.5%	.	?	-6.3	21.4
COc1ccc(CC(=O)N2CCN(C(=O)c3ccco3)CC2)cc1	18.7	.	-23.9%	1.2	-1.4	6.8	6.1
O=C(Cc1ccc(-n2c(=O)[nH]c3ccsc3c2=O)cc1)NCc1cccnc1	-17.7	0.8%	-13.4%	11.9	-2.4	11.8	4.2
O=C(OCC(=O)N1CCN(S(=O)(=O)c2ccccc2)CC1)C1CCC1	-3.4	2.4%	.	.	-0.6	.	-4.5
CC(C)CNC(=O)COC(=O)CNC(=O)c1cc(Cl)cc([N+](=O)[O-])c1	-7.8	0.6%	10.1%	11.6	2.0	2.2	5.4
COc1ccc(NC(C)=O)cc1S(=O)(=O)Nc1ccc(S(=O)(=O)N2CCCCC2)cc1	-0.9	-2.2%	.	0.0	-1.0	.	5.9
COc1ccc(CCn2c(-c3ccco3)nc3ccccc3c2=O)cc1OC	?	-2.0%	6.4%	-7.1	-4.0	-21.0	-9.7
COc1cccc(NC(=O)COC(=O)/C=C/c2ccco2)c1	-7.5	4.0%	.	.	-1.5	11.0	-9.8

Shown as a markdown table: part of the list above
| canonical_smiles | D2 potentiator | PINK1 expr mod | Sfp inh | CtBP-E1A inh | D2 ag | TRPV1 PAM | Six1-Eya2 inh |
| --- | --- | --- | --- | --- | --- | --- | --- |
| COc1ccc(NC(C)=O)cc1S(=O)(=O)Nc1ccc(S(=O)(=O)N2CCCCC2)cc1 | -0.9 | -2.2% | . | 0.0 | -1.0 | . | 5.9 |
| COc1ccc(CCn2c(-c3ccco3)nc3ccccc3c2=O)cc1OC | ? | -2.0% | 6.4% | -7.1 | -4.0 | -21.0 | -9.7 |

An excerpt from above in order of their number in Six1-Eya2 inh, highest first.
structure	Six1-Eya2 inh
O=c1c2ccccc2[nH]c(=S)n1CCCN1CCN(c2ccccc2F)CC1	21.4
COc1ccc(NC(C)=O)cc1S(=O)(=O)Nc1ccc(S(=O)(=O)N2CCCCC2)cc1	5.9
CC(CN1CCOCC1)c1ccccc1 (stereo not given)	4.3
O=C(Cc1ccc(-n2c(=O)[nH]c3ccsc3c2=O)cc1)NCc1cccnc1	4.2
O=S1(=O)CC(N2CCC(c3ccccc3)CC2)CN1Cc1ccc(F)cc1 (stereo not given)	-0.8
COc1ccc(CCn2c(-c3ccco3)nc3ccccc3c2=O)cc1OC	-9.7

(continued)
SMILES	D2 potentiator	PINK1 expr mod	Sfp inh	CtBP-E1A inh	D2 ag	TRPV1 PAM	Six1-Eya2 inh
CCOc1ccc(CCNC(=O)COC(=O)c2nc(Cl)ccc2Cl)cc1OCC	1.9	-0.2%	.	1.3	-1.7	9.0	-8.5
Cn1c(=O)c2c(ncn2CC(=O)NC[C@H]2O[C@@H](n3cnc4c(N)ncnc43)[C@H](O)[C@@H]2O)n(C)c1=O	3.4	-0.8%	.	3.9	-0.7	.	-0.7
O=C(CCN1CCN(C/C=C/c2ccccc2)CC1)Nc1ccc(Cl)cc1	-33.8	-1.1%	-15.3%	4.4	-6.0	-6.6	15.0
Cc1nnc(SCC(=O)Nc2ccc3c(c2)OCCO3)n1CC1CCCO1 (stereo not given)	-10.1	-0.8%	6.6%	2.3	-2.3	-3.8	5.6
CC1CN(S(=O)(=O)c2cccs2)CC(C)O1 (stereo not given)	-3.9	-0.5%[38.3 µM]	8.2%	0.9	-0.8	-4.3	0.2
COc1ccc(NC(=O)Cc2csc(NC(=O)Nc3ccccc3OC)n2)c(OC)c1	8.3	3.2%	.	-7.8	-3.6	-4.9	-12.1
Nc1[nH][nH]c(=O)c1N=Nc1ccc2c(c1)OCO2	-7.5	-3.4%	-5.3%	-24.1	-6.5	-5.9	-18.3
Cc1c(C(=O)N2CCCCC2)c(S(=O)(=O)NCc2ccc(F)cc2)c(C)n1C	-2.6	-0.7%	19.3%	-2.6	-5.5	3.3	5.4
COCCCNC(=O)CCn1c(=O)c2ccccc2n(CC(=O)NCCC2=CCCCC2)c1=O	-2.1	6.7%	-9.9%	7.9	-0.8	25.8	13.3
O=C(CC1CCCC1)Nc1ccc2c(c1)CCC2	-3.7	-0.6%	3.1%	-0.6	-2.6	0.8	1.8
COc1ccc(C(=O)NC2CCN(Cc3c(F)cccc3Cl)CC2)cc1OC	-5.3	0.8%	6.0%	.	-1.0	-25.7	5.1
O=C(CNC(=O)c1ccccc1)N/N=C/c1cc(Br)ccc1O	-10.5	2.4%	6.8%	9.6	-0.7	14.1	-65.0*
N=C(c1ccc([N+](=O)[O-])cc1)N1CCCCCC1	0.1	0.4%	10.9%	11.5	1.4	-2.2	1.9
CCC(C(=O)Nc1sc(C(N)=O)c(C)c1C(=O)OC)c1ccccc1 (stereo not given)	-19.2	8.6%	-3.7%	0.0	3.0	-4.3	-28.6
CCCCCCCN1C(Nc2ccccc2)=NC[C@@H]1Cc1ccccc1	-23.1	4.6%	-21.1%	-2.1	-3.2	-7.9	-5.2
CCOC(=O)N1CCc2c(sc3c2c(=O)n(Cc2ccccc2)c(=O)n3Cc2ccccc2F)C1	-3.5	1.3%	-2.0%	1.9	-2.5	20.6	3.1
CCOc1ccc(N(C(C)C(=O)NC2CCCCCC2)S(C)(=O)=O)cc1 (stereo not given)	-10.6	0.0%	-21.4%	-2.6	-2.2	-0.4	3.3
CCOC(=O)C1CCN(CCCSc2ccc(Cl)cc2)CC1	-27.0	7.7%	11.4%	-4.3	-1.6	7.7	8.0
O=C(CCCN1C(=O)c2cccc3cccc(c23)C1=O)N1CCN(c2ccc(F)cc2)CC1	-0.8	0.2%	-6.5%	2.4	-4.8	-7.7	?
COn1c(=O)c(-c2ccc(F)cc2)[n+]([O-])c2ccccc21	-5.2	0.3%	-8.9%	0.3	-0.9	10.8	1.3
Cc1ccc2oc(C(=O)N(CCO)Cc3ccccc3)c(C)c2c1	-2.2	2.5%	5.3%	3.2	0.0	0.0	0.3
CC1CCCN(C(=O)CSc2nnc3n(C4CCCC4)c(=O)c4ccccc4n23)C1 (stereo not given)	1.5	5.3%[38.3 µM]	12.2%	10.5	-1.4	-26.7	2.9
COc1ccc(NC(=O)c2cc(OC)c(OC)c(OC)c2Br)cc1OC	0.6	6.9%	4.3%	2.3	-0.4	-2.3	2.9
COc1cc(CNCCc2ccccc2F)ccc1OCC(=O)N1CCCCC1	-22.8	-1.0%	15.6%	15.0	-0.1	6.0	-2.8
O=C(COC(=O)c1cnccn1)NCc1ccc2c(c1)OCO2	-2.3	0.0%	15.7%	-0.8	-2.9	-0.4	-2.3
COC(=O)Cn1nc(-c2ccccc2)n(-c2ccccc2)c1=S	3.7	1.6%	2.4%	7.7	-1.0	.	1.5
CCCc1cc(=O)[nH]c(SCC(=O)NC2CCCc3ccccc32)n1 (stereo not given)	-7.1	-0.8%	16.5%	.	-3.1	-6.3	8.5
CC(NC(=O)C1CCCN1C(=O)c1cccs1)c1ccc(Cl)cc1Cl (stereo not given)	-4.0	-0.4%	.	5.8	-1.1	.	-2.0
CCc1nc2c(OCc3ccc(C#N)cc3)cccn2c1N(C)C(=O)c1ccc(C)cc1	-9.0	2.3%	.	-9.8	-0.4	.	-2.2
O=S(=O)(Cc1ccccc1)c1cnc2ccccc2n1	-11.5	-2.8%	5.3%	-2.7	-2.4	17.9	5.4
O=S(=O)(c1ccc(F)c(F)c1)N1CCC2(CC1)OCCO2	-4.8	0.0%	7.7%	-6.9	-0.5	-4.7	-1.3
CC(C)(C)NC(=S)N1CCC2CC1c1c(Cl)cccc12 (stereo not given)	-1.2	3.6%	.	-2.2	-3.8	.	2.5
C=CCc1c(C)nc(-c2ccccc2)nc1Nc1ccccc1O	-2.0	?	9.2%	-10.8	0.1	5.8	-7.3
Cc1ccc(Cn2nnnc2CN2CCC(NC(=O)c3ccc(Br)cc3)CC2)cc1	-8.5	16.0%	-8.8%	2.0	0.5	-31.3	22.6
Cn1c(=O)[nH]c(=O)c2[nH]c(NCCCN3CCOCC3)nc21	-20.0	0.8%	4.5%	4.8	-2.2	0.7	-0.9
COC(=O)[C@@H]1Cc2c([nH]c3ccccc23)C(C)N1C(=O)c1ccccc1 (stereo not given in full)	-11.3	5.8%	-3.6%	.	3.0	-2.9	-13.0
CC(C)[C@H](N)C(=O)NC[C@H]1CC[C@H](C(=O)N[C@@H](Cc2ccccc2)C(=O)O)CC1	-5.5	1.2%	0.9%	-22.7	-4.3	9.7	12.7

Some of the entries above, reformatted:
compound,D2 potentiator,PINK1 expr mod,Sfp inh,CtBP-E1A inh,D2 ag,TRPV1 PAM,Six1-Eya2 inh
CC(C)(C)NC(=S)N1CCC2CC1c1c(Cl)cccc12 (stereo not given),-1.2,3.6%,.,-2.2,-3.8,.,2.5
Cc1ccc(Cn2nnnc2CN2CCC(NC(=O)c3ccc(Br)cc3)CC2)cc1,-8.5,16.0%,-8.8%,2.0,0.5,-31.3,22.6
